Source: PubChem (Johns Hopkins Ion Channel Center)
Kir21 inh: inhibitors of mouse Kir2.1 inward-rectifier potassium channel. Inward rectifier potassium channel 2 (Mus musculus), P35561. HEK293-Kir2.1, FluxOR thallium flux fluorescence; hits give low values. B-score at 10 µM. 310,000 compounds, 0.85% hits. AID 1672, 2009;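 active = fluorescence ratio B-score at or below minus 3 SD of library scores, with starting-brightness B-score within 2 SD, cut at about -4.2 in these data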;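 also: channel flux triggered by added potassium and thallium sulfate stimulus; B-score of peak minus minimum fluorescence over baseline after thallium stimulus; more negative B-score means stronger Kir2.1 block with less thallium influx; some compounds called inactive have numbers as strong as hits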
Target sequence (P35561 whole entry, looked up): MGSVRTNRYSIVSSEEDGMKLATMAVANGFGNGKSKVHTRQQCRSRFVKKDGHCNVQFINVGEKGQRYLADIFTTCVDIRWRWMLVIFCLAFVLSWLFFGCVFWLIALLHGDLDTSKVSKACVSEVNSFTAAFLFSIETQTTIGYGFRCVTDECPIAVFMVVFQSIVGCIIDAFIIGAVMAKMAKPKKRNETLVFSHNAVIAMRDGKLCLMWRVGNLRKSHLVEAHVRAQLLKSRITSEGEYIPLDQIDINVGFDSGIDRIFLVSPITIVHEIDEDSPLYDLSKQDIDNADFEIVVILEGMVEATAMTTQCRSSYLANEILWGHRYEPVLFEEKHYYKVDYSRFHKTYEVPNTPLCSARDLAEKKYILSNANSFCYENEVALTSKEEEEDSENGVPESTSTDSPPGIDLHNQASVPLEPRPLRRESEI
* marks the source's active call; other numbers are inactive results; & = joins results of further samples.

compound | Kir21 inh
COc1cccc(NC(=O)c2ccc(CN3CCN(c4ccccc4)CC3)cc2)c1 | 0.57
O=C(CN(C(=O)CNC(=O)c1ccco1)c1ccc(F)cc1)NC1CCCCC1 | 0.05
O=C(C1=C[C@H](c2ccccc2)C[C@H](OCCCCO)O1)N1CCN(Cc2ccccc2)CC1 | -1.3
CC1=CC(=C2C(=O)c3ccccc3C2=O)C=C(C)N1Cc1ccco1 | 2
Cc1ccc(OCC(=O)Nc2c[nH]c(=O)[nH]c2=O)cc1C | 0.89
CC(C)(C)NC(=O)C(c1ccco1)N(Cc1ccc(F)cc1)C(=O)c1snc(C(N)=O)c1N (stereo unspecified) | 0.06
CCC1(CC)C(=O)NN(c2ccccc2)C1=O | -0.01
c1ccc2[nH]c(CSc3nc4ccccc4o3)nc2c1 | -1.2
CCOC(=O)N1CCN(C(=O)c2ccc(N(Cc3ccccc3Cl)S(C)(=O)=O)cc2)CC1 | -0.87
COc1ccc(-n2c(COc3cccc4ccccc34)nnc2SC(C)C(=O)O)cc1 (stereo unspecified) | 1
CCN(CC)C(=O)c1ccccc1NS(=O)(=O)c1ccc(C)cc1 | -0.02
CC(N=C(NC#N)Nc1ccncc1)C(C)(C)C (stereo unspecified) | -1.9&-1.1
COc1cccc(-c2cc(=O)c3cc(NC(=O)c4ccccc4)ccc3[nH]2)c1 | 0.89
O=Cc1cccn1-c1sc2c(c1C(=O)O)CCCC2 | 0.73
Cc1c(-c2ccccc2)oc2c(C(=O)N3CCN(c4ccccc4F)CC3)cccc2c1=O | 1.5
O=C(COc1ncnc2ccccc12)c1ccc2c(c1)OCCO2 | -0.58
CC(c1ccccc1)C(CC(=O)O)C(=O)NC1CCCCC1 (stereo unspecified) | -1.2
O=C(CSc1nnc(-c2ccco2)o1)c1ccc([N+](=O)[O-])cc1 | -3.4
NS(=O)(=O)c1ccc(N/N=C2/CCCCC2C2CCCCC2)c([N+](=O)[O-])c1 (stereo unspecified) | 0.83
COc1cccc(C(=O)N2CCCC(CCC(=O)NCc3ccc(F)c(F)c3)C2)c1 (stereo unspecified) | -0.06
CCOc1ccc(OCCC(=O)N(CCC2=CCCCC2)c2c(N)n(Cc3ccccc3)c(=O)[nH]c2=O)cc1 | 1.3
Cc1cc(=O)n2nc(N3CCCC(C(=O)NCc4ccco4)C3)sc2n1 (stereo unspecified) | -0.03
NC1=NS(=O)(=O)NC1c1cccc(F)c1 (stereo unspecified) | 1.4
CCOc1ccccc1C(=O)NCCC(=O)O | 0.37
O=C(O)c1ccc(COc2ccccc2/C=C2/NC(=O)N(c3cccc(Cl)c3)C2=O)cc1 | 0.47
COc1ccc(Oc2nc(C(F)(F)F)nc3ccccc23)cc1 | -0.44
Cc1ccc(C(=O)OCC(=O)NCCN2C(=O)CSC2=O)cc1 | 0
CCC(=O)Nc1nnc(S(=O)(=O)N(C)Cc2ccco2)s1 | 1.1
COCCOc1cnn(-c2cc(Oc3ccc(C)cc3)ncn2)c(=O)c1Cl | 0.46
C=CCn1c(SCC(=O)Nc2c(C)n(C)n(-c3ccccc3)c2=O)nc2sc(C)c(-c3ccccc3)c2c1=O | -1.1
Cc1ccc(NC(=O)CN(C)C(=O)COC(=O)C(C)(C)Oc2ccc(Cl)cc2)cc1 | 0.03
C=CCSc1nc2c(c(=O)[nH]c(=O)n2C)n1C(C)C | 0.09
N#C/C(=C\c1ccc(OCc2cccc(C(=O)O)c2)cc1)C(=O)NCc1ccco1 | 0.4
Cc1ccc(C(CC(=O)c2ccc(Cl)cc2)C(=O)O)cc1 (stereo unspecified) | 0
COc1ccc(S(=O)(=O)NCC2CCCN(CC(C)(C)C)C2)cc1 (stereo unspecified) | -1.2
CCOC(=O)C(=CNc1ccc(-c2ccco2)c(Cl)c1)C(=O)OCC | 1.4
Cc1ccc(C)c(N(CC(=O)N(C)C)S(C)(=O)=O)c1 | 0.01
CCOc1ccc2nc(NS(C)(=O)=O)sc2c1 | -0.75
COC(=O)CCC/C=C1/SCC(NC(=O)c2ccccc2)C1O (stereo unspecified) | -1.2
Cc1ccc([N+](=O)[O-])cc1S(=O)(=O)N1CCCC1 | 0.5
O=C(COc1nnnc2ccccc12)N1CCCc2ccccc21 | -0.02
O=C(O)CCCCCNC(=O)/C(=C\c1ccco1)NC(=O)c1ccco1 | 0.78
COc1cc(/C=C(\C#N)c2ccccn2)ccc1OCC(=O)Nc1ccc(Br)cc1 | -0.63
CCC(=O)Nc1nc(CC(=O)Nc2ccccc2OC)cs1 | -0.94
CCOC(=O)C(=CNc1cccc(N)n1)C(=O)OCC | 0.43
CCOc1ccc(C(C)NC(=O)c2cccnc2OCC)cc1OCC (stereo unspecified) | -1.5
Cc1ccc(CNC(=O)CCN2C(=O)[C@@H]3Cc4ccccc4CN3C2=O)cc1 | 1.1
CN(CC(=O)Nc1ccc(Cl)c(C(F)(F)F)c1)C(=O)c1cc(=O)[nH]c2ccccc12 | 0.45
Cc1cc(C)c2nc(N3CCC(C(=O)NCC4CCCO4)CC3)sc2c1 (stereo unspecified) | -0.44
Cc1cc(NC(=O)COC(=O)c2ccccc2[N+](=O)[O-])no1 | 0.73
CCOCCn1c(=NC(=O)c2ccc(S(=O)(=O)N3CCOCC3)cc2)sc2cc(S(N)(=O)=O)ccc21 | 0.12
CCCCN(C(=O)Cn1nnc2ccccc21)C(C(=O)NCCOC)c1ccccc1 (stereo unspecified) | 0.75
Cc1cccc(N2CCN(C(=O)C3CCN(S(=O)(=O)c4cccnc4)CC3)CC2)c1C | 1.1
CC(c1ccccn1)N(CCN(C)C)C(=S)Nc1ccccc1F (stereo unspecified) | -0.15
Cn1c(CN2CCOCC2)nnc1SCC(=O)NC1CCCCC1 | -0.04
CCN(c1ccccc1)S(=O)(=O)c1c[nH]c2ccc([N+](=O)[O-])cc12 | 0.88
O=C(c1ccc(C(F)(F)F)cc1)C1CCCN(C(=O)Cn2cnnn2)C1 (stereo unspecified) | 1.3
COc1ccc(NC(=O)CN2CCN(CC(=O)Nc3ccccc3F)CC2)cc1OC | 2.7
O=C(CCS(=O)(=O)c1ccc(Br)cc1)NCCc1ccc(Cl)cc1 | -0.3
O=c1cc(O)c2sc(Nc3cccc(C(F)(F)F)c3)nc2[nH]1 | 1.5

(more compounds)
compound | Kir21 inh
CCC(=O)Oc1ccc(C(=O)Nc2cccc(NC(=O)c3ccco3)c2)cc1 | 0.7
CCS(=O)(=O)N1Cc2ccccc2CC1C(=O)Nc1nccs1 (stereo unspecified) | -0.89
CCS(=O)(=O)N1CCN(c2ccc(C(=O)N3CCOCC3)cc2[N+](=O)[O-])CC1 | -0.19
Cn1cc(CCC(=O)N2CCCC(N3CCN(c4ccccc4F)CC3)C2)cn1 (stereo unspecified) | 1.5
Cc1cc(-c2cccnc2)c(C#N)c(SCc2cccc(F)c2)n1 | -0.17
Cc1ccc(-n2c(SCc3nc4ccccc4[nH]3)nnc2-c2ccncc2)cc1 | 0.05
Cc1ccc(C(=O)NCCc2ccncc2)cc1 | 1.2
Cn1nc(C(F)(F)F)c(C#N)c1N1CCN(c2cccc(C(F)(F)F)c2)CC1 | 0.17
Cc1ccc(CNC(=O)CCS(=O)(=O)c2ccc(Br)s2)o1 | 0.06
COc1ccccc1OCc1ccc(C(=O)N(C)C)o1 | -0.72
O=C(CCC(=O)N1CCOc2ccccc21)NC1CCN(Cc2ccccc2)CC1 | 0.15
CN(C(=O)COC(=O)c1cccnc1Nc1cccc(C(F)(F)F)c1)C1CCS(=O)(=O)C1 (stereo unspecified) | -0.16
O=C(COC(=O)c1ccccc1F)c1ccc(-n2nncc2-c2ccco2)cc1 | 0.68
O=C(CNC(=O)C12CC3CC(CC(C3)C1)C2)N/N=C\c1ccco1 | -0.42
CC(C)n1nc(C(=O)Nc2cccc(S(=O)(=O)NCc3ccco3)c2)c2ccccc2c1=O | -0.74
CCN1CCC(N2CCN(c3ccc(F)cc3)CC2)CC1 | 2.8
Cc1csc(NC(=O)c2nc(-c3ccccc3)n(-c3ccccc3)n2)n1 | -0.01
Cc1ccc(S(=O)(=O)Nc2ccc3ccccc3n2)cc1 | 1.5
Cc1csc(NC(=O)C2CCCCC2C(=O)O)n1 (stereo unspecified) | 0.17
CCc1ccc2oc(=O)cc(CN3CCN(Cc4ccccc4)CC3)c2c1 | -1.3
O=C(CCS(=O)(=O)c1cccc2nonc12)NCCc1ccccc1 | 0.35
O=C(COC(=O)/C=C/c1ccc(Cl)cc1)Nc1ccccc1-c1ccccc1 | 1.6
CCN(CC)C(=O)c1ccc(-c2nnc(Nc3ccc(C(=O)NC)cc3)c3ccccc23)cc1 | 1.2
CCCCCOc1ccc(C(=O)Nc2ccc(S(=O)(=O)Nc3cc(C)on3)cc2)cc1 | 0.53
COc1ccc(N(CC(=O)NCc2cccnc2)S(=O)(=O)c2ccc(C)c([N+](=O)[O-])c2)cc1 | 1.3
COc1ccc2cc(C(=O)Nc3c(C)n(C)n(-c4ccccc4)c3=O)sc(=O)c2c1OC | -0.02
Cc1nnc(SCC(=O)NC2CCCCC2)n(N)c1=O | -0.32
CCO[C@@H]1OC(C(=O)Nc2ccccc2)=C[C@H](c2ccc(C(F)(F)F)cc2)[C@H]1CCCO | 1.2
O=C(O)C1CCN(S(=O)(=O)c2cccc3nsnc23)CC1 | 1.1
NS(=O)(=O)c1ccc(NC(=S)Nc2ccc(C(=O)N3CCCCC3)cc2)cc1 | 0.34

3 of the entries above in order of the Kir21 inh value, ascending.
mol,Kir21 inh
Cc1nnc(SCC(=O)NC2CCCCC2)n(N)c1=O,-0.32
O=C(O)C1CCN(S(=O)(=O)c2cccc3nsnc23)CC1,1.1
CCN(CC)C(=O)c1ccc(-c2nnc(Nc3ccc(C(=O)NC)cc3)c3ccccc23)cc1,1.2

Further records:
compound | Kir21 inh
Cn1nc([N+](=O)[O-])nc1Sc1cccc2cccnc12 | 0.67
COc1ccc(C(=O)C2CCCN(Cc3ccc(NC(C)=O)cc3)C2)cc1OC (stereo unspecified) | -0.29
CCN(CC)C(=O)CSC1=C(C#N)C(c2ccco2)C(C(=O)OCCOC)=C(C)N1 (stereo unspecified) | -0.25
CCCCNS(=O)(=O)c1ccc2nc(SCC(=O)Nc3cccc(F)c3)[nH]c2c1 | 1.1
O=C(N/N=C/c1ccc2c(c1)OCO2)c1ccc(NS(=O)(=O)c2cccs2)cc1 | 0.16
O=C(Nc1ccc(S(=O)(=O)N2CCCCC2)cc1)c1ccccc1F | 0.45
Cc1ccc(S(=O)(=O)N(C)C)cc1NC(=O)c1c(-c2c(F)cccc2Cl)noc1C | 0.03
COc1cccc(C(O)c2nc3ccccc3n2C)c1 (stereo unspecified) | 0.08
COc1ccc2[nH]c3ccc(OC)cc3c2c1 | -1.5
c1cnc(SCCOc2ccc3c(c2)CCC3)nc1 | -0.01
COc1cc2[nH]c(=O)n(Cc3ccc(C(=O)NCC4CCCO4)cc3)c(=O)c2cc1OC (stereo unspecified) | -0.94
COc1cccc(C(=O)COC(=O)c2ccc(NC(=O)c3ccccc3)cc2)c1 | 0.13
COC(=O)CCCN1C(=O)c2cccc3cccc(c23)C1=O | 0.28
O=C(CN1CCC(NC(=O)Nc2ccccc2-c2ccccc2)CC1)NCc1ccco1 | 0.54
CCOC(=O)c1[nH]c(C)c(C(=O)NC2CCN(C(=O)OCC)CC2)c1C | 1.4
Cc1ccc(-c2csc3ncn(CC(=O)O)c(=O)c23)cc1C | 0.02
O=C(NNC(=O)c1ccccn1)c1cccc([N+](=O)[O-])c1 | -1.3
COc1ccccc1CNS(=O)(=O)c1c(C)noc1C | -1
Cc1c(CN2CCC(CO)(CCOc3ccccc3)CC2)[nH]c2c(Cl)cccc12 | -1.8
O=C(c1ccccc1)c1nc2c(n1O)CCCCC2 | 0.22
CCC(=O)Nc1nnc(SCC(=O)Nc2ccc3c(c2)OCO3)s1 | -0.25
C[C@@H](C(=O)O)[C@@H]1C[C@@]1(C)[C@@H](NC(=O)OCc1ccccc1)c1ccccc1 | 1.8
CCc1ccc(C(C)(O)C(CN2CCOCC2)c2ccccc2)cc1 (stereo unspecified) | 0.74
COc1ccc(OCc2cc(C(=O)N3C[C@@H](C)O[C@@H](C)C3)no2)c(Cl)c1 | 0.35
Cc1ccc2c(c1)N(C(=O)CCC(=O)NCc1cccc(F)c1)CCO2 | -1.1
CCOc1cc2nc(-c3ccc(OC)c(OC)c3)nc(NCCCN3CCOCC3)c2cc1OC | 0.5
CCn1cc(Br)c(C(=O)Nc2sc3c(c2C(N)=O)CCCC3)n1 | 0.9
Cc1ccc(NC(=S)N2CCN(S(=O)(=O)c3ccccc3)CC2)cc1C | -0.64
Nc1nc(N)nc(-c2cc(Cl)ccc2Cl)n1 | -0.44
O=C(CCCn1cc([N+](=O)[O-])cn1)Nc1cccnc1 | -1.3
O=C(Nc1ncc(Cc2cccc(C(F)(F)F)c2)s1)c1ccc(-c2cccc([N+](=O)[O-])c2)o1 | 2.4
COc1cccc(-c2ccc(SCC(=O)NC3CCCC3)nn2)c1 | 1.1
Cc1cc(NC(=NC2CC2)c2ccccc2)n(-c2ccccc2)n1 | -1.1
CCc1nc(CN2CCCC(C(=O)c3ccc4c5c(cccc35)CC4)C2)c(C)[nH]1 (stereo unspecified) | -2.9
Cc1ccc(SCC(=O)OCC(=O)Nc2ccc3[nH]c(=O)[nH]c3c2)cc1C | -0.82
CC(=O)c1cc(NC(=O)c2ccc(C)cc2)c(=O)oc1/C=C/N(C)C | -2.7
CCn1c(CNc2nc(-c3ccccc3)cs2)nnc1SCC(=O)NCc1ccccc1 | 0.76
NS(=O)(=O)c1ccc(CCNC(=O)NC23CC4CC(CC(C4)C2)C3)cc1 | 0.01
COc1ccc(-n2c(C)csc2=S)cc1 | 0.01
CC1CN(C(=O)Nc2ccc3c(c2)OCCO3)CC(C)O1 (stereo unspecified) | -0.57

Only part of the results is shown, and most or all hits are left out here.
